Assay outcomes as filed in PubChem BioAssay.
Ecoli growth – E. coli growth inhibition, primary screen, OD600; Escherichia coli growth, 23 h; hits give low values; OD600 absorbance (test concentration not listed); hit rate 0.21% among 330,000; AID 1053175, 2014;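 active = OD600 absorbance below the run mean of sample wells minus 3.6 SD, in any replicate, cut at about 0.56 in these data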;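 also: stock transfer was 300 nL into about 60 µL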
rRNA inh HTS – reduced GFP signal of wild-type E. coli, primary screen, bacterial rRNA inhibitor project, GFP/RFP fluorescence, OD600, single point. E. coli WT GFP vs humanized-ribosome RFP mutants, 24 h; hits give low values; DMSO median 0, no signal -100. GFP signal change (wild-type ribosome), % (no concentration beside the values). hit rate 1.6% among 350,000;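 active = significant combined selectivity score with lowered wild-type GFP, culture density cut under 30%, mutant RFP and density less affected; inactive = any of these conditions unmet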; also: one replicate is shown; some compounds called inactive have numbers as strong as hits
MLL AF4-AF9 inh – inhibitors of AF4 peptide binding to AF9, primary screen, biochemical, AlphaScreen, biotin-AF4 peptide, FLAG-AF9, single point; inhibition, % at 10 µM; hit rate 0.47% among 350,000;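 active = every replicate reaching a set inhibition limit, whatever the replicate mean, cut at about 25% in these data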;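 also: 0% = plate neutral control median and 100% = total signal loss; the record names both 10 and 1 µM as test concentration; the first replicate is given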
Target sequence (P42568 whole entry, looked up): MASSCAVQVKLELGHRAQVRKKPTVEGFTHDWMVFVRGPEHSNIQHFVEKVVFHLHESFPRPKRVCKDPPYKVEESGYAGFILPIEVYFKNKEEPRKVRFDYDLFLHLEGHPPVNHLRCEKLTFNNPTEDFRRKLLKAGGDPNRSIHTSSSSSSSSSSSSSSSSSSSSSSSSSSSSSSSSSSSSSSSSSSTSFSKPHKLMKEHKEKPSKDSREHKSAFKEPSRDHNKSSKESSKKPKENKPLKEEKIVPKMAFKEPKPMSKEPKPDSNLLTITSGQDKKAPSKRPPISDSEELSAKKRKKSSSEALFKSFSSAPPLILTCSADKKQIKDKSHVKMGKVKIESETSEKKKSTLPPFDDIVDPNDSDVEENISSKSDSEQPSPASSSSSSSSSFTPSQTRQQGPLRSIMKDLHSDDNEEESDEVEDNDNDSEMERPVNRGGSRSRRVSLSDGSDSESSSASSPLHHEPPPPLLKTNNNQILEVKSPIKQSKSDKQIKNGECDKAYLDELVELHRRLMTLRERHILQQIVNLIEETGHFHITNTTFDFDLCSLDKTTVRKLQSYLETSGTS
Vif A3G – inhibitors of Vif binding to APOBEC3G peptide, primary screen, biochemical, TR-FRET, GST-Vif 1-94, biotin-A3G peptide, dose response retest (AID 1117319) | Virion infectivity factor (Human immunodeficiency virus type 1 group M subtype B (isolate … | TR-FRET GST-Vif / biotin-A3G peptide binding; higher % means a stronger effect; test concentration not given here; strong numbers were not always called active | inhibition, %; hits with a dose series show IC50 in µM | hit rate 0.57% among 260,000;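 active = above the screen mean plus three standard deviations and confirmed in dose response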;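 also: Vif residues 1-94 fused to GST binding biotinylated APOBEC3G peptide 110-148; 0% = full assay without inhibitor and 100% = GST in place of GST-Vif; retest series ran down from 100 µM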
FGF22 binding – binders of human FGF22 protein, primary screen, FGF22 synaptogenesis inhibitor project, biophysical, thermal shift, single point; Fibroblast growth factor 22 (Homo sapiens), Q9HCT0; recombinant FGF22 thermal shift, SYPRO orange fluorescence; percent of sucrose octasulfate shift, DMSO zero; calls only at 9.99 µM; hit rate 1.5% among 340,000; AID 651658, 2012;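 active = melting point raised past a set limit in the mean and every replicate; three in four hits are not shown here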
ALR H2O2 inh – inhibitors of human ALR sulfhydryl oxidase, primary screen, biochemical, H2O2 detection, HRP-luminol luminescence, single point; purified ALR, DTT oxidation; inhibition, % (no concentration beside the values); hit rate 3.8% among 290,000; AID 485317, 2010;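 active = mean and each replicate at 75% or more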;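 also: stock transfer was 7.5 nL into about 7.5 µL; 0% = neutral wells and 100% = wells with inactivated enzyme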
HNF4A DNA FP – change in binding of human HNF4A to DNA, primary screen, biochemical, fluorescence polarization, FITC-DNA; 1 h; activity change, % at 10 µM; hit rate 0.3% among 360,000; in the data active = activity change above about 30%, passing the limit was not always enough;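 also: controls were the assay level and a saturating level of protein; the project sought stronger binding though the title names inhibitors; some compounds called inactive have numbers as strong as hits; positive values seem to mean higher polarization but the record does not say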
Target sequence (P41235 whole entry, looked up): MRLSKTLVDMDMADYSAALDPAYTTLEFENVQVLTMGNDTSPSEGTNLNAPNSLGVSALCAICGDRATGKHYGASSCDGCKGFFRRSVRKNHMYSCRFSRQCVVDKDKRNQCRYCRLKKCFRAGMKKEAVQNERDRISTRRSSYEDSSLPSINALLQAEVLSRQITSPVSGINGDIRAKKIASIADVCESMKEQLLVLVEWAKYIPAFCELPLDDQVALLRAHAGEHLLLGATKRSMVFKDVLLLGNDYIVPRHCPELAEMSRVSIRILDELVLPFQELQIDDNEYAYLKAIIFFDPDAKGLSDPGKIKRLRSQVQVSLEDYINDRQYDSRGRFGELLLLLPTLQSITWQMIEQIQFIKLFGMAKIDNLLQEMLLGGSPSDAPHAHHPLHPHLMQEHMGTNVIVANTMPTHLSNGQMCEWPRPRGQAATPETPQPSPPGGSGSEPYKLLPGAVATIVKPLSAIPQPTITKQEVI
rRNA inh HTS OD600 – also measured in rRNA inh HTS; calls as there; OD600 change, %; measured here: OD600 growth;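 optical density of the mix in the first replicate; 0 = DMSO median and -100 = no signal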
rRNA inh HTS RFP – recorded beside rRNA inh HTS, whose call it bears; RFP signal change, %; measured here: RFP humanized mutant strains;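 first replicate; 0 = DMSO median and -100 = no signal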
The depositor's hits bear a star. An excerpt; rates above refer to the full screens.

COc1ccc(NC(=O)Nc2cccc3c2O[C@H](CN(C)Cc2ccc(Oc4ccccc4)cc2)[C@@H](C)CN([C@H](C)CO)C3=O)cc1 was read as rRNA inh HTS -3.2, MLL AF4-AF9 inh 1.0, FGF22 binding inactive, rRNA inh HTS OD600 0.7 and rRNA inh HTS RFP 5.0.
`Cc1csc(NC(=O)c2ccc(C)c(S(=O)(=O)N3CCOCC3)c2)n1` gave Ecoli growth 0.691, rRNA inh HTS -4.3, MLL AF4-AF9 inh 0.7, Vif A3G -13.5%, FGF22 binding inactive, rRNA inh HTS OD600 -8.3 and rRNA inh HTS RFP 3.4.
For CC(C)C[C@@H]1COc2cccc(N(C)CCO)c2S(=O)(=O)N1 the results were rRNA inh HTS -1.2, MLL AF4-AF9 inh -0.1, FGF22 binding inactive, HNF4A DNA FP 0.6, rRNA inh HTS OD600 -9.6 and rRNA inh HTS RFP -3.4.
`CC(C)n1nnnc1C1c2ccccc2C(=O)N1CCCn1ccnc1` (stereo not drawn) gave rRNA inh HTS 21.4, MLL AF4-AF9 inh -1.5, FGF22 binding inactive, HNF4A DNA FP -1.8, rRNA inh HTS OD600 6.1 and rRNA inh HTS RFP -2.1.
Screening Cc1cc(SCC(N)=O)nc(SCC(=O)c2ccccc2)n1 returned Ecoli growth 0.702, Vif A3G 7.4% and HNF4A DNA FP -3.5.
`CNC(C)C(=O)NC(C(=O)N1CCCC1C(=O)Nc1ccc2ncccc2c1)C(C)C` (stereo not drawn) gave Ecoli growth 0.632, rRNA inh HTS 3.2, FGF22 binding inactive, ALR H2O2 inh -9.2, HNF4A DNA FP -1.1, rRNA inh HTS OD600 7.2 and rRNA inh HTS RFP -0.1.
`CCCCCC(=O)Nc1cccc(S(=O)(=O)NC2=NCCCCC2)c1` gave Ecoli growth 0.68, MLL AF4-AF9 inh -1.5, Vif A3G -6.4%, FGF22 binding inactive and HNF4A DNA FP 2.0.
O=C(Nc1ccc(F)cc1)N1C[C@@H]2[C@H](c3ccccc31)[C@@H](CO)N2C(=O)c1ccccc1F was read as rRNA inh HTS 4.9, MLL AF4-AF9 inh -3.7, FGF22 binding inactive, rRNA inh HTS OD600 14.5 and rRNA inh HTS RFP -0.8.
`Cc1ccc(C(=O)N2N=C(c3cccc(NS(C)(=O)=O)c3)CC2c2cccs2)cc1` (stereo not drawn) gave Ecoli growth 0.668, rRNA inh HTS -4.7, MLL AF4-AF9 inh 3.5, Vif A3G 1.2%, FGF22 binding inactive, ALR H2O2 inh -2.5, HNF4A DNA FP 2.3, rRNA inh HTS OD600 -16.4 and rRNA inh HTS RFP 5.2.
O=C(COC(=O)c1ccc([N+](=O)[O-])o1)NC1CCS(=O)(=O)C1 (stereo not drawn) was read as Ecoli growth 0.655, rRNA inh HTS 5.2, MLL AF4-AF9 inh -2.0, Vif A3G -7.3%, FGF22 binding inactive, HNF4A DNA FP -1.8, rRNA inh HTS OD600 4.3 and rRNA inh HTS RFP -6.2.
`CC(=O)Nc1ccc2nc(CN3CCN(CC(C)C)C(CCO)C3)ccc2c1` (stereo not drawn) gave Ecoli growth 0.694, rRNA inh HTS 12.4, MLL AF4-AF9 inh -4.4, FGF22 binding inactive, ALR H2O2 inh -4.5, HNF4A DNA FP -2.0, rRNA inh HTS OD600 7.6 and rRNA inh HTS RFP 1.4.
`CSCC[C@H](NC(=O)[C@H](Cc1ccccc1)n1c(=O)[nH]c2ccccc2c1=O)C(=O)NCC1CCC(C(=O)O)CC1` (stereo partly drawn) gave Ecoli growth 0.762, MLL AF4-AF9 inh -3.3, FGF22 binding inactive and HNF4A DNA FP -3.2.
O=C(Nc1ccccc1Cl)N1C[C@H]2[C@@H](c3ccccc31)[C@H](CO)N2Cc1ccccc1 was read as rRNA inh HTS -23.1*, MLL AF4-AF9 inh 1.6, FGF22 binding inactive, rRNA inh HTS OD600 -15.8* and rRNA inh HTS RFP 3.7*.
`c1cn(CCCNc2ncnc3nc[nH]c23)cn1` gave Ecoli growth 0.728, rRNA inh HTS 5.0, MLL AF4-AF9 inh -2.8, Vif A3G 5.0%, FGF22 binding inactive, ALR H2O2 inh -13.6, HNF4A DNA FP 1.6, rRNA inh HTS OD600 7.0 and rRNA inh HTS RFP -2.4.
Screening COc1ccc(-c2cc(=O)oc3cc(OC(C)C(=O)NCCCn4ccnc4)ccc23)cc1 (stereo not drawn) returned Ecoli growth 0.672, MLL AF4-AF9 inh -5.9, FGF22 binding inactive and HNF4A DNA FP 1.2.
Screening CC=Cc1ccc2n(c1=O)C[C@@H]1[C@@H](CO)[C@H](C(=O)N(C)C)[C@H]2N1C(=O)c1ccccc1 (mixture of isomers) returned rRNA inh HTS 1.3, MLL AF4-AF9 inh -1.4, FGF22 binding inactive, rRNA inh HTS OD600 2.7 and rRNA inh HTS RFP -1.1.
`CN(C)C(=O)CCc1ccc2c3c([nH]c2c1)[C@]1(CCC2CCCC2)[C@@H](C(=O)N2CCOCC2)C[C@H](CC(=O)NCCCn2ccnc2)C(=O)N1CC3` gave Ecoli growth 0.723, rRNA inh HTS 0.7, MLL AF4-AF9 inh -1.7, Vif A3G -1.6%, FGF22 binding inactive, HNF4A DNA FP 1.1, rRNA inh HTS OD600 0.9 and rRNA inh HTS RFP -2.0.
For NC(N)=NS(=O)(=O)c1ccc(NC(=S)NC(=O)c2ccccc2)cc1 the results were Ecoli growth 0.678, rRNA inh HTS 3.8, MLL AF4-AF9 inh -6.2, Vif A3G 16.9%, FGF22 binding inactive, ALR H2O2 inh 1.4, HNF4A DNA FP -2.0, rRNA inh HTS OD600 -5.1 and rRNA inh HTS RFP 3.5.
Screening Cc1ccc(C)c(Cn2cnc3c(cnn3C(C)(C)C)c2=O)c1 returned Ecoli growth 0.681, Vif A3G 0.7%, ALR H2O2 inh -3.7 and HNF4A DNA FP 1.0.
Screening CCSc1nnc(SCC(=O)c2c(N)n(C)c(=O)n(C)c2=O)s1 returned Ecoli growth 0.662, rRNA inh HTS 4.2, MLL AF4-AF9 inh -4.1, Vif A3G -11.3%, FGF22 binding inactive, HNF4A DNA FP 1.3, rRNA inh HTS OD600 4.7 and rRNA inh HTS RFP -1.5.
Screening O=S(=O)(NCc1ccccc1Cl)c1ccc(-n2cccn2)cc1 returned Ecoli growth 0.69, rRNA inh HTS -12.0, MLL AF4-AF9 inh -1.8, FGF22 binding inactive, ALR H2O2 inh -1.8, HNF4A DNA FP -2.5, rRNA inh HTS OD600 -8.6 and rRNA inh HTS RFP 6.8.
`CN(C)c1ccc(C(C(=O)NC(C)(C)C)N(C(=O)c2csnn2)C2CC2)cc1` (stereo not drawn) gave Ecoli growth 0.684, Vif A3G 7.5%, ALR H2O2 inh 44.9 and HNF4A DNA FP -0.5.
Screening CCC(=O)N1C[C@@H](C)[C@H](OC)CN(C)C(=O)c2ccc(NC(=O)C3CCCCC3)cc2OC[C@H]1C returned rRNA inh HTS -3.5, MLL AF4-AF9 inh -1.1, FGF22 binding inactive, rRNA inh HTS OD600 -3.0 and rRNA inh HTS RFP -1.4.
For Cc1ccc(S(=O)(=O)N(CC(=O)Nc2cccc([N+](=O)[O-])c2)Cc2ccc(Cl)cc2)cc1 the results were Ecoli growth 0.728, ALR H2O2 inh -4.2 and HNF4A DNA FP 0.7.
`Cc1cc(N2CCOCC2)nc(SCC(=O)OCc2ccccc2)n1` gave Ecoli growth 0.672, rRNA inh HTS -6.2, MLL AF4-AF9 inh 0.6, Vif A3G 6.2%, FGF22 binding inactive, ALR H2O2 inh -6.1, HNF4A DNA FP 2.7, rRNA inh HTS OD600 -12.2 and rRNA inh HTS RFP 0.9.
Screening Cn1c(=O)c2c(nc(CN3CCN(C(=O)c4ccco4)CC3)n2Cc2ccccc2)n(C)c1=O returned Ecoli growth 0.716, Vif A3G 31.4%, ALR H2O2 inh -0.7 and HNF4A DNA FP 0.7.
`COc1ccc(NC(=O)N(C)C[C@H]2Oc3ccc(NC(=O)Nc4ccc(F)cc4)cc3C(=O)N([C@@H](C)CO)C[C@H]2C)cc1` gave rRNA inh HTS -1.8, MLL AF4-AF9 inh -1.4, FGF22 binding inactive, rRNA inh HTS OD600 -8.1 and rRNA inh HTS RFP -0.2.
NC(=O)C1CCN(c2cc(Cl)ccc2[N+](=O)[O-])CC1 was read as Ecoli growth 0.633, rRNA inh HTS -22.1*, MLL AF4-AF9 inh -1.5, FGF22 binding inactive, ALR H2O2 inh -5.3, HNF4A DNA FP 0.7, rRNA inh HTS OD600 -10.0* and rRNA inh HTS RFP -2.6*.
Cc1cc(C)cc(NC(=O)c2cccc(C(=O)Nc3cc(C)cc(C)c3)n2)c1 was read as Ecoli growth 0.675, rRNA inh HTS 12.2, MLL AF4-AF9 inh -1.4, FGF22 binding inactive, ALR H2O2 inh 17.2, HNF4A DNA FP 1.6, rRNA inh HTS OD600 12.8 and rRNA inh HTS RFP 1.5.
O=C(NCCC1=CCCCC1)C1CCCN(c2nc3ccccc3o2)C1 (stereo not drawn) was read as Ecoli growth 0.743, Vif A3G -0.8%, ALR H2O2 inh -6.8 and HNF4A DNA FP -2.2.
CC(C)CC1NC(=O)c2ccc(Cl)cc2-n2c1nc1cc(F)ccc1c2=O (stereo not drawn) was read as rRNA inh HTS -11.8, MLL AF4-AF9 inh -4.9, FGF22 binding inactive, ALR H2O2 inh 5.7, rRNA inh HTS OD600 -26.1 and rRNA inh HTS RFP -7.1.
`CC(C)CC#Cc1ccc2c(c1)O[C@H](CN(C)C(=O)c1cccnc1)[C@@H](C)CN([C@@H](C)CO)S2(=O)=O` gave rRNA inh HTS -0.7, MLL AF4-AF9 inh 3.1, FGF22 binding inactive, rRNA inh HTS OD600 -2.2 and rRNA inh HTS RFP -1.1.
N#Cc1c(SC(C(=O)O)c2ccccc2)nc2c(c1-c1cccs1)CCCC2 (stereo not drawn) was read as Ecoli growth 0.608, rRNA inh HTS -53.2, MLL AF4-AF9 inh -22.5, Vif A3G -15.6%, FGF22 binding inactive, HNF4A DNA FP 1.1, rRNA inh HTS OD600 -65.2 and rRNA inh HTS RFP -14.2.
C[C@@H]1NC(=O)N(CCCn2ccnc2)C1=O was read as Ecoli growth 0.665, rRNA inh HTS 12.1, MLL AF4-AF9 inh 3.8, Vif A3G -6.0%, FGF22 binding inactive, ALR H2O2 inh -6.0, HNF4A DNA FP 1.0, rRNA inh HTS OD600 14.9 and rRNA inh HTS RFP -0.2.
`CC1CCN(C(=O)Cn2cc3c(n2)CCCC3)CC1` gave Ecoli growth 0.709, rRNA inh HTS 6.3, MLL AF4-AF9 inh -1.0, Vif A3G 7.9%, FGF22 binding inactive, ALR H2O2 inh -3.3, HNF4A DNA FP 3.7, rRNA inh HTS OD600 8.6 and rRNA inh HTS RFP -1.1.
Cc1ccc(Nc2nnc(SCC(=O)Nc3ccccc3[N+](=O)[O-])s2)cc1 was read as Ecoli growth 0.642, ALR H2O2 inh -1.1 and HNF4A DNA FP 2.6.
O=C(Nc1cc([N+](=O)[O-])ccc1Cl)c1cccnc1 was read as Ecoli growth 0.718, rRNA inh HTS 4.5, MLL AF4-AF9 inh -0.9, FGF22 binding inactive, ALR H2O2 inh -3.4, HNF4A DNA FP -3.6, rRNA inh HTS OD600 13.0 and rRNA inh HTS RFP -0.2.
